Source: PubChem (several laboratories)
Hsc70 ATP site – Hsc70 inhibitors, probe displacement, primary screen, biochemical, fluorescence polarization (AID 568) | Hsc70 fluorescence polarization, probe displacement; higher % means a stronger effect; strong numbers were not always called active | one-dose displacement, % at 20 µM; IC50 in µM for titrated hits | 83,000 tested, under 10 active;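 active = displacement above 50% without optical interference and an IC50 on retest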;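 note: ATPase domain with a fluorescein-tagged ATP probe; 0% = vehicle and 100% = excess ADP; read after one hour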
MT1-MMP reporter – MT1-MMP gene expression reporter suppression – cell-based, luciferase reporter, luminescence (AID 618); MT1-MMP promoter luciferase reporter cells, luminescence; calls from a first round at 10 µM; hits with a dose series show EC50 in µM; 87,000 compounds, 0.62% hits;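 active = over half of the reporter light lost at 10 µM or EC50 under 50 µM; inactive = the rest and hits that failed the dose series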;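 note: actives suppress MT1-MMP promoter-driven transcription so potencies describe inhibitors; HT1080 fibrosarcoma cells; overnight exposure; toxic or luciferase-blocking compounds were not removed from the actives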
WNV protease inh – blocks West Nile virus NS2B-NS3 protease activity | P06935 | WNV NS2B-NS3 protease, fluorogenic substrate Ex360/Em465; stronger effect = lower value | z-score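 (tested at a level between 10 and 100 µM)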 | 65,000 compounds, 0.18% hits | AID 577;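 active = z-score at -3 or under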;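 note: score is relative to mean and spread of the compound wells of a plate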
Target sequence (P06935 1371-1501 limits assumed): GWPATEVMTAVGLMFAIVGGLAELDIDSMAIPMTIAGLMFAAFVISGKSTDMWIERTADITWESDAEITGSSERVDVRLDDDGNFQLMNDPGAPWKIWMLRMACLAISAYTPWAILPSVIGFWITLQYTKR
Target sequence (P06935 1502-1679 limits assumed): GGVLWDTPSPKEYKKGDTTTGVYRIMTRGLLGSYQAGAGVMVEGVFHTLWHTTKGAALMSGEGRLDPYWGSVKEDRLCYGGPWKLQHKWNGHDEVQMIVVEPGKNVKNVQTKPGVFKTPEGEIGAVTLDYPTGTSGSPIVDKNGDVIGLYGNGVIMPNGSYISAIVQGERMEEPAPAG
* hit, by the source's call; i = inactive; . = no result given. Some of the compounds tested; rates above refer to the full screens.

Values in the order – Hsc70 ATP site	MT1-MMP reporter	WNV protease inh
> COc1ccc(C(c2nnnn2Cc2ccccc2)N2CCN(c3nc4ccccc4s3)CC2)cc1 (stereo unspecified)
    -47.1%	i	-0.75
> O=C(Nc1ccccc1C(=O)NCc1ccco1)c1ccccc1
    5.6%	i	-0.41
> CCOc1cc(C(c2c(C)[nH][nH]c2=O)c2c(C)[nH][nH]c2=O)ccc1OS(=O)(=O)c1ccc(C)cc1
    -4.2%	i	.
> CCOc1cccc2cc(-c3nnc(-c4ccccc4)o3)c(=O)oc12
    -10.1%	i	-0.09
> Cc1nc(-c2ccccc2)sc1C(N)=O
    5.9%	i	1.16
> O=C(NCC1COc2ccccc2O1)Nc1ccccc1F (stereo unspecified)
    -2.6%	i	0.35
> CCOC(=O)N1CCN(C(=O)C2CCCN(c3ncnc4c3sc3cccc(F)c34)C2)CC1 (stereo unspecified)
    2.9%	i	-0.86
> CN1CCCN(Cc2ccccc2C(F)(F)F)CC1
    0.3%	i	0.35
> COc1ccc2c(c1)CCc1c-2n[nH]c1C(=O)O
    -1.8%	i	-0.21
> COC(=O)CN(c1ccc(OC)c(OC)c1)S(C)(=O)=O
    0.7%	i	0.17
> CCSc1nc2c(c(=O)[nH]c(=O)n2C)n1CC(O)COc1ccccc1C (stereo unspecified)
    2.8%	i	1.27
> Nc1nc(-c2ccc(Cl)cc2)cn1N
    2.1%	i	.
> CCOC(=O)N1CCC(N2Cc3cccc(C(=O)NCc4ccc5c(c4)OCO5)c3C2=O)CC1
    4.0%	i	1.19
> Cc1ccc(NC(=O)Cc2nnc(SCC(=O)c3ccc(Br)cc3)n2C)cc1Cl
    1.3%	i	.
> CC(C)(C)C(=O)C(CO)(Oc1ccc(Cl)cc1)n1cncn1 (stereo unspecified)
    3.4%	i	0.2
> Cc1ccc(NC(=O)Cn2cc3c(n2)CCC(C)C3)cc1 (stereo unspecified)
    3.5%	i	-0.08
> CCOC(=O)c1ccc(NC(=O)COc2ccccc2OC)cc1
    -3.6%	i	-0.28
> CC(=O)N=c1sc(S(N)(=O)=O)nn1C
    3.0%	i	-0.28
> COc1cc(C2NC(=O)c3ccccc3O2)cc(OC)c1OC (stereo unspecified)
    -3.6%	i	1.75
> Clc1nnc2ccc(-c3ccccc3)nn12
    1.0%	i	-0.93
> Cc1nc(SCc2ccc(Br)cc2)[nH]c(=O)c1C
    6.0%	i	-0.34
> C/C(=C(\C#N)C(=O)NC1CCCCC1)N(C)C
    -2.4%	i	0.43
> Cc1ccc2oc(-c3cccc(NC(=O)C4CCCO4)c3)nc2c1 (stereo unspecified)
    -4.1%	i	-0.13
> CCCN(CCC)C(=O)c1c(C)[nH]c(C(=O)OCC)c1C
    -1.8%	i	1.06
> O=C(CC1NC(=O)NC1=O)Nc1cccc2ccccc12 (stereo unspecified)
    -2.9%	i	-1.36
> CCc1nc(SCc2ccccn2)c2c(=O)n(C)c(=O)n(C)c2n1
    -1.3%	i	-0.41
> Cc1ccc2[nH]c(=O)c(CN(CCO)C(=O)NCc3ccccc3)cc2c1
    -0.1%	i	-0.08
> N#Cc1nc(COc2ccc(Br)cc2)oc1N1CCN(Cc2ccccc2)CC1
    -7.8%	i	1.17
> CCCCC(=O)NC(c1cccc([N+](=O)[O-])c1)c1c(OC(C)=O)ccc2ccccc12 (stereo unspecified)
    3.6%	i	.
> COC(=O)c1[nH]c2cccc(OC)c2c1NC(=O)CN1CC(C)OC(C)C1 (stereo unspecified)
    -0.2%	i	.

Looked up by structure from above:
Values in the order – Hsc70 ATP site	MT1-MMP reporter	WNV protease inh
> CC(=O)N=c1sc(S(N)(=O)=O)nn1C
    3.0%	i	-0.28
> CC(C)(C)C(=O)C(CO)(Oc1ccc(Cl)cc1)n1cncn1 (stereo unspecified)
    3.4%	i	0.2
> O=C(CC1NC(=O)NC1=O)Nc1cccc2ccccc12 (stereo unspecified)
    -2.9%	i	-1.36

The list goes on.
Values in the order – Hsc70 ATP site	MT1-MMP reporter	WNV protease inh
> Oc1c(C(c2cccs2)N2CCC3(CC2)OCCO3)sc2ncnn12 (stereo unspecified)
    1.9%	i	0.74
> CCc1cccc(NC(=O)CN(C)S(=O)(=O)c2cnc[nH]2)c1
    -2.2%	i	-0.3
> O=C(NCc1ccccc1)C(c1ccc(F)cc1)N(Cc1ccc2c(c1)OCO2)C(=O)Cn1nnc(-c2cccs2)n1 (stereo unspecified)
    -9.1%	i	.
> COc1ccc(N2CCN(C(=O)C3CCN(S(=O)(=O)N4CCOCC4)CC3)CC2)cc1
    -2.6%	i	1.17
> O=C(O)CC(NC(=O)C(c1ccccc1)c1ccccc1)c1ccco1 (stereo unspecified)
    0.4%	i	0.16
> CCCCCn1c(=O)c(-c2nc3ccccc3c(=O)[nH]2)c(O)c2ccccc21
    -2.1%	i	-0.45
> CC(C)NC(=O)c1ccc2c(c1)S(=O)(=O)c1ccccc1C2=O
    3.4%	i	.
> CCOC(=O)C1CCN(S(=O)(=O)c2cccc(-c3csc(C)n3)c2)CC1
    3.1%	i	-0.37
> Cc1nn(CCC#N)c2nc(C(F)(F)F)[nH]c(=O)c12
    -1.7%	i	2.26
> CC(C)NCC(=O)NC12CC3CC(CC(C3)C1)C2
    6.4%	i	.
> CCOC(=O)C1CCN(C(=O)Cc2c(F)cccc2Cl)CC1
    -4.1%	i	-0.63
> Cc1ccc(-c2nn3c(C)nnc3s2)cc1NC(=O)COc1ccc(Cl)cc1
    -0.3%	i	-0.46
> CC(C)=C1SC(N2CCN(c3ccc(C)cc3)CC2)=NC1=O
    -1.1%	i	.
> CCCCC(=O)Nc1ccc(C(=O)N2CCN(C)CC2)cc1
    2.8%	i	-0.56
> O=C(O)CC1SC(=O)N(Cc2ccccc2)C1=O (stereo unspecified)
    -3.1%	i	-0.25
> O=C(CSc1nc2ccccc2c(=O)n1Cc1ccco1)c1ccccc1
    -4.6%	i	1.27
> O=C1C(=O)N(CCO)C(c2cccc(F)c2)/C1=C(\O)c1ccc(Cl)cc1 (stereo unspecified)
    2.5%	i	-1.14
> CCc1nc2scc(-c3ccccc3)c2c(=O)n1N
    4.8%	i	0.15
> COC(=O)C1=C(C)N=C2SCCC(=O)N2C1c1cccs1 (stereo unspecified)
    -1.5%	i	-1.7
> CC1CC(C(F)F)n2nc(C(=O)O)cc2N1 (stereo unspecified)
    -0.7%	i	.
> Cc1ccc2c(CC(=O)N3CCc4ccccc43)coc2c1
    1.5%	i	0.26
> Cn1c(SCC(=O)N2CCCc3ccccc32)nnc1-c1cccs1
    -4.5%	i	0.14
> Cc1cc(NC(=O)CSc2nc3cc4c(cc3c(=O)n2CCc2ccccc2)OCO4)no1
    -3.5%	i	0.08
> Cc1cccc(N2CCN(C(=O)c3ccncc3)CC2C)c1 (stereo unspecified)
    0.9%	i	-0.91
> O=C(c1noc2c1CCCC2)N1CCCCC1
    2.5%	i	-1.12
> Cc1onc(-c2ccccc2Cl)c1C(=O)Nc1ccccc1
    4.5%	i	.
> NC12CC3CC(C1)CC(CO)(C3)O2
    3.2%	i	0.42
> CCCNS(=O)(=O)c1ccc(CCC(=O)Nc2ccc3c(c2)OCO3)cc1
    -3.2%	i	-0.7
> Cc1ccc(NC(=O)COC(=O)c2ccnn2C)cc1
    0.0%	i	-0.76
> Cc1nnc(NC(=O)C2CCCCC2)s1
    -9.9%	i	-1.41

Part of the list above, bar-delimited.
molecule | Hsc70 ATP site | MT1-MMP reporter | WNV protease inh
CC(C)NC(=O)c1ccc2c(c1)S(=O)(=O)c1ccccc1C2=O | 3.4% | i | .
CCOC(=O)C1CCN(S(=O)(=O)c2cccc(-c3csc(C)n3)c2)CC1 | 3.1% | i | -0.37
Cc1nn(CCC#N)c2nc(C(F)(F)F)[nH]c(=O)c12 | -1.7% | i | 2.26
CC(C)NCC(=O)NC12CC3CC(CC(C3)C1)C2 | 6.4% | i | .

Continuation:
Values in the order – Hsc70 ATP site	MT1-MMP reporter	WNV protease inh
> CCn1c(SCC(=O)Nc2nc3ccc(OC)cc3s2)nc2c1c(=O)n(C)c(=O)n2C
    -2.9%	i	-0.21
> Oc1c(Cl)cc(Cl)c2c1NCCC2
    1.0%	i	0.7
> CCSc1nc(C)c(CC)c(C)c1C(N)=O
    3.1%	i	0.24
> CCOC(=O)C1CCN(S(=O)(=O)c2ccc(Br)c(OCC)c2)CC1
    -4.3%	i	-0.26
> O=C(CSCC(=O)N1CCOCC1)Nc1ccccc1
    2.2%	i	-0.36
> COc1cccc(C2NC(=O)NC(C)=C2C(=O)Nc2cccc(C)c2C)c1 (stereo unspecified)
    2.6%	i	-0.07
> Cc1ccc(C(=O)C2C(c3cccs3)NC(=O)NC2(O)C(F)(F)F)cc1 (stereo unspecified)
    -4.9%	i	0.31
> CCn1c(C(C)NC(=O)Cc2ccccc2)nc2ccccc21 (stereo unspecified)
    1.0%	i	-0.72
> COCCNC(=O)C(c1cccc(OC)c1)N(C(=O)Cn1nnc2ccccc21)c1cccnc1 (stereo unspecified)
    -4.7%	i	0.97
> COc1ccccc1-c1nnc2sc(COc3ccc(F)cc3)nn12
    -10.6%	i	-0.7
> CCCCSc1nnc(CCCCCNC(=O)OC(C)(C)C)o1
    -8.6%	i	-0.1
> O=C(Nc1ccc(OC(=O)c2cccs2)cc1)c1ccco1
    -4.0%	i	-0.36
> Cc1cc(C)n(-c2nc3ccccc3nc2N2CCN(S(=O)(=O)c3ccc(F)c(C)c3)CC2)n1
    3.4%	i	1.12
> C=CCc1c(C)nc(SC)nc1Nc1ccccc1
    6.3%	i	.
> O=C1Nc2ccc(S(=O)(=O)N3CCCCCC3)c3cccc1c23
    -2.2%	i	-0.55
> COc1ccc(CNc2nc3c(c(=O)n(Cc4ccc(Br)cc4)c(=O)n3C)n2C)cc1
    0.2%	i	-0.21
> Cc1ccccc1N1C(=O)CC(N2CCC(C(N)=O)CC2)C1=O (stereo unspecified)
    -6.2%	i	-0.06
> CCN1CCN(c2nc3c(c(=O)[nH]c(=O)n3C)n2CCCSc2ncccn2)CC1
    4.7%	i	-3.75*
> O=C(CCCO)c1ccc2c(c1)OCCO2
    -0.2%	i	.
> Cc1nn(C)cc1C=NCCOCc1ccccc1
    0.7%	i	.
> CC(C)OCCCNc1ncnc2c1[nH]c1ccccc12
    0.1%	i	-0.34
> COc1ccc(CNC(=O)COC(=O)c2ccc3c(c2)OCCO3)cc1
    -3.3%	i	-0.31
> CCCn1c2c(c(O)c(C(=O)NCCCN(CC)CC)c1=O)CCCC2
    6.2%	i	.
> O=C(Nc1ccccn1)C(NS(=O)(=O)c1cccc2nsnc12)c1ccccc1 (stereo unspecified)
    3.9%	i	-0.44
> CCCOc1ccccc1-c1nc(SCCC(=O)O)n[nH]1
    3.8%	i	-0.75
> c1ccc(C2C3=C(Nc4ncnn42)c2ccccc2CCC3)cc1 (stereo unspecified)
    -2.7%	i	-0.95
> CCC(=O)Nc1cccc(NC(=O)c2cc3ccccc3o2)c1
    8.2%	i	0.9
> CCOC(=O)C1=NN(c2ccc(OC)cc2)C(c2ccccc2)CC1=O (stereo unspecified)
    3.3%	i	.
> COc1ccc(O)c(-c2cc(-c3cccs3)[nH]n2)c1
    -0.8%	i	-1.63
> CCCCCCNC(=O)C(C#N)c1nc2ccccc2nc1N1CCCC1 (stereo unspecified)
    56.3%	i	-0.9
> COc1ccc2nc(-c3ccco3)c(-c3ccco3)nc2c1
    10.2%	i	.
> CC(=O)NCCOc1ccc2oc3ccccc3c2c1
    7.0%	i	-0.65
> Oc1ccc(C=Nc2ccc3ncccc3c2)c(O)c1
    -3.5%	i	0.2
> COC(=O)CN1C(=O)C(O)=C(C(C)=O)C1c1ccc([N+](=O)[O-])cc1 (stereo unspecified)
    0.3%	i	.
> O=C(COC(=O)[C@H](Cc1c[nH]c2ccccc12)NC(=O)c1ccc(Cl)cc1)Nc1ccc2c(c1)OCO2
    1.6%	i	.
> CCOc1ccccc1C(=O)N(C)Cc1cc2ccccc2[nH]c1=O
    -2.1%	i	-0.5
> COc1ccc(NC2c3ncccc3C(=O)N2Cc2ccccc2)c(OC)c1 (stereo unspecified)
    3.6%	i	-0.51
> Cc1ccc(-c2noc(CCC(=O)Nc3cccc(C#N)c3)n2)cc1
    -2.4%	i	-0.83
> Cc1onc(-c2ccccc2)c1C(=O)NCC1COc2ccccc2O1 (stereo unspecified)
    0.7%	i	.
> Clc1ccc(CSc2nnc(Cn3cnc4ccccc43)o2)cc1
    1.7%	i	0.46
> CC(C)CC(=O)N1CCN(Cc2cccc(F)c2)CC1
    -1.2%	i	2.46
> CCCn1c(=O)c(-c2ccccc2)c(O)c2ccccc21
    -2.9%	i	-0.99
> CCN(CC)c1ccc2cc(NC(=O)CCC(=O)O)c(=O)oc2c1
    60.8%	0.67µM*	0.73
> O=C1C2=C(NC(=S)NC2c2ccc(Cl)cc2)NC(c2ccc(Cl)cc2)N1c1ccc(Cl)cc1 (stereo unspecified)
    5.5%	i	.
> COc1ccccc1NC(NC(=O)c1ccco1)C(=O)c1ccccc1 (stereo unspecified)
    9.1%	i	-0.82
